# hNpr1 antagonist = blocks ANP-stimulated signaling of human Npr1 receptor. P16066. HEK293 hNpr1 GloSensor cGMP, ANP-stimulated luminescence. Potency, µM (highest dose often 46.3 µM), inactives show at the highest dose activity change, negative = inhibition, actives largely listed as inhibitors. 76,000 compounds, 1.6% hits. AID 1347048; active = well fitted inhibition curve with a large enough effect; inconclusive = small, poorly fitted or top-dose-only effect; inactive = no such curve, though single readings can be large or run the other way;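 note: nearly all actives have a fitted effect of over 60% in size; nearly all hits also lower the signal before the agonist is added; a reference antagonist and vehicle were the controls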
# Target sequence (P16066 whole entry, looked up): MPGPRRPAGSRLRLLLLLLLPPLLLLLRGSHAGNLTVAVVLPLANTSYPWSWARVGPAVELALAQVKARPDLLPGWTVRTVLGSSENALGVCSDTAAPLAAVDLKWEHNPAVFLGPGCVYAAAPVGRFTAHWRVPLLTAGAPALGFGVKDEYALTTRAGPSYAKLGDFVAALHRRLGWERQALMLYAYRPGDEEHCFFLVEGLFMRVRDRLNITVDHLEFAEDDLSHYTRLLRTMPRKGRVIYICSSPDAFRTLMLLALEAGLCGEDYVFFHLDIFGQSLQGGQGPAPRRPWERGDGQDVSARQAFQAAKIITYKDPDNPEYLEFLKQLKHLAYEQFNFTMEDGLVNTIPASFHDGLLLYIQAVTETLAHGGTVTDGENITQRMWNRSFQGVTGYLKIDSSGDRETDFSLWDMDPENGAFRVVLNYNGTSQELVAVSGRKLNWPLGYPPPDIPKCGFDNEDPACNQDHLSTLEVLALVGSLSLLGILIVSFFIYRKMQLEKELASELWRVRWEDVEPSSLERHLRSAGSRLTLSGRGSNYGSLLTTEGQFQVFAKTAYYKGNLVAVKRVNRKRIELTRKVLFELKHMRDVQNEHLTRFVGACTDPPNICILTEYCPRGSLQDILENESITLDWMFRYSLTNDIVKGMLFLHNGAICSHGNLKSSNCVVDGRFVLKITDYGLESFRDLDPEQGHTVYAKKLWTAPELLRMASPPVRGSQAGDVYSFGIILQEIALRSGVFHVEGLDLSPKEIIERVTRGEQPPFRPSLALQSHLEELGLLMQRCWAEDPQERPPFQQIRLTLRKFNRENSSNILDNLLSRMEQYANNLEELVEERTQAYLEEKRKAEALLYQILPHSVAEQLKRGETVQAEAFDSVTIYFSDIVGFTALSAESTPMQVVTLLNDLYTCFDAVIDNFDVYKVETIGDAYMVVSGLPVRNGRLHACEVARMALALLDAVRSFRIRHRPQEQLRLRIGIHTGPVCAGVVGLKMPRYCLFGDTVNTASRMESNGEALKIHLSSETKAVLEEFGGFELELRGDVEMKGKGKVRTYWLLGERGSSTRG
#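 HEK293 cells stably expressing human Npr1 and cGMP GloSensor pGS-40F, loaded 2 h with 2% GloSensor reagent, given compound 30 min at room temperature. Luminescence read before and 20 min after 0.1 nM hNppA.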
# Active calls of the source: *; ? = inconclusive; & = joins results of further samples; [ ] = another dose, or the depositor's remark. % is set by controls: 0 for no effect and ±100 for the full control effect; potency is the fitted concentration of half-maximal effect.
SMILES,hNpr1 antagonist
CN1CCc2c([nH]c3ccccc23)C12CCN(C(=O)c1ccc3ncccc3c1)CC2,1.6%
O=C(NCCc1ccccc1F)c1nc2sccn2c1Br,?
O=C(NCc1ccc(-c2cnc3c(Oc4ccccc4)nccn23)cc1)c1ccn[nH]1,-8.6%[70.6 µM]
CCOCCN1C(=O)COC[C@@H]1[C@H](O)c1ccc(NC(=O)COc2ccccc2)cc1,-0.1%[70.6 µM]
O=C1CCN(C(=O)[C@@H]2CCCN2C(=O)NCCc2ccccc2)CCCCCCN1,-6.6%
O=S(=O)(c1ccc(F)cc1)N1CCCC(Cc2noc(-c3ccccc3)n2)C1 (stereo not drawn),-29.4%
COc1ccc(CN2CCc3nc(N(C)C)[nH]c(=O)c3CC2)cc1Br,8.4%
COc1ccc(C(=O)N[C@@H]2CCC[C@@H]2C(=O)NCCc2ccc(OC)c(OC)c2)cc1,0.0%
COc1ccccc1-c1nc(N2CCOCC2)cc2c1CN(Cc1cnn(C)c1)C2=O,2.3%[70.6 µM]
COc1ccc(CNC2(Cc3cc(C(=O)N4CCCCC4)on3)COC2)cc1,0.6%[70.6 µM]
CN1[C@@H](CCC(=O)NCc2cccnc2)CNC(=O)[C@@H]2[C@H]1CCN2C1CCCCC1,0.0%[70.6 µM]
CN(CCc1ccccc1)Cc1cc(C(=O)N2CCOc3ccccc3C2)no1,-0.5%
COCc1noc([C@@H]2CN(Cc3ccncc3F)C[C@H]2COC)n1,-4.8%
COc1ccccc1/C=C/CN1CCNC(=O)C1CC(=O)N(C)Cc1ccc(C)cc1 (stereo not drawn),2.2%
O=C(c1cccc(Cl)c1)N1CCN(c2cc(-c3ccccc3)[nH]n2)CC1,-22.1%
O=C(NCc1ccco1)N1CCc2c(nc(-c3ccc(F)cc3)[nH]c2=O)C1,-2.2%
CCc1noc(C)c1C(=O)N1CCC(CCC(=O)NCc2cccc(C(F)(F)F)c2)CC1,-16.9%
COc1cccc([C@@H]2CN(C(=O)c3cc(C)oc3C)C[C@H]2C(=O)O)c1OC,6.1%
CCCc1nc(C(=O)N2CCN(c3nc4ccccc4s3)CC2)cs1,?
CSCC[C@@H]1NC(=O)c2cc(NC(=O)c3n[nH]c4c3CCC4)ccc2NC1=O,-0.1%

# Some values from the results shown.
# In hNpr1 antagonist, O=C(c1cccc(Cl)c1)N1CCN(c2cc(-c3ccccc3)[nH]n2)CC1 is entered as -22.1%
# In hNpr1 antagonist, COCc1noc([C@@H]2CN(Cc3ccncc3F)C[C@H]2COC)n1 is entered as -4.8%
# In hNpr1 antagonist, CN1[C@@H](CCC(=O)NCc2cccnc2)CNC(=O)[C@@H]2[C@H]1CCN2C1CCCCC1 is entered as 0.0%[70.6 µM]
# In hNpr1 antagonist, COc1ccccc1/C=C/CN1CCNC(=O)C1CC(=O)N(C)Cc1ccc(C)cc1 (stereo not drawn) is entered as 2.2%
# In hNpr1 antagonist, CSCC[C@@H]1NC(=O)c2cc(NC(=O)c3n[nH]c4c3CCC4)ccc2NC1=O is entered as -0.1%

# Continued.
SMILES,hNpr1 antagonist
CCCN(CCC)C(=O)C1COC2(CCCCC2)N1C(=O)c1ccccc1 (stereo not drawn),-11.3%
COc1ccc(C(=O)N2CCC3(Cc4ccccc4NC3=O)C2)cc1 (stereo not drawn),?
CC(C)C(NC(=O)C1CCC1)C(=O)N1CCN(c2ccccn2)CC1 (stereo not drawn),2.0%
Cc1ccc(C2Cn3nnc(-c4noc(CCc5ccccc5)n4)c3CO2)cc1 (stereo not drawn),-0.8%
COCC1CN(S(=O)(=O)c2ccc3c(c2)OCCO3)CC12CCNCC2 (stereo not drawn),-2.1%
CC(C)NC(=O)[C@@H]1C[C@@H](NC(=O)c2cnc3c(O)cccn3c2=O)CN1C,-0.7%
Cc1ccccc1-c1[nH]nc2ncc(-c3ccsc3)nc12,-13.3%[70.6 µM]
O=C(Nc1cccc(Br)c1)c1cnc(-c2ccccc2)nc1-c1ccncc1,?
Cc1ccc(C(=O)N2CCC3(CCC(=O)N(Cc4ccccc4)CC3)CC2)s1,-23.3%
CN(Cc1ccccc1C(F)(F)F)Cc1cccn1C,-13.5%&9.7%[70.6 µM]
CCOc1cc(=O)n2c(c1C(=O)NCc1ccc3c(c1)OCO3)CCCC2,1.2%
O=C(CCCn1cncn1)N[C@H]1CCOC[C@H]1C1CCOCC1,-1.6%
Cc1ccc(CN2CCN(C(=O)C3Cn4cccc4C(=O)N3Cc3cccnc3)CC2)cc1 (stereo not drawn),-6.6%
COCCc1noc([C@@H]2CN(Cc3ccc4c(c3)CCO4)C[C@H]2CO)n1,-1.2%
O=C(c1ccccc1F)N1CCC2(CC1)CN(Cc1ccccc1)CC2CO (stereo not drawn),-15.1%
CSc1ccccc1C(=O)N(C)C1CCCN(CCCc2ccccc2)C1 (stereo not drawn),7.0%
CN1CCN(CCCNC(=O)c2ccc(N3CC4CC(C3)[C@H]3CCCC(=O)N3C4)nc2)CC1 (stereo partly drawn),1.4%
O=C(NC1CCCN(C2CCCCCC2)C1)c1ccccc1C(F)(F)F (stereo not drawn),4.9%
CC(=O)N1CCN(C(=O)[C@@H]2Cc3cn(Cc4cc(C)on4)c4cccc(c34)[C@H](CC(C)C)N2)CC1,6.5%
CCCn1ncc(CN2CCCC23CCN(c2ncccn2)CC3)c1C,7.7%

# Next section (2 carried over from the part before).
SMILES,hNpr1 antagonist
CC(=O)N1CCN(C(=O)[C@@H]2Cc3cn(Cc4cc(C)on4)c4cccc(c34)[C@H](CC(C)C)N2)CC1,6.5%
CCCn1ncc(CN2CCCC23CCN(c2ncccn2)CC3)c1C,7.7%
Cc1noc(-c2cn(C3CCN(C(=O)C(C)Oc4ccccc4)CC3)nn2)n1 (stereo not drawn),0.7%
O=C(Nc1ccc(C2(C(=O)N3CCCCCC3)CCC2)cc1)C1CC1,-0.5%
COc1ccccc1CN1CCC(N2CCCCCC2=O)CC1,-2.9%[70.6 µM]
O=C(NC1COC1)c1ccc2c(c1)C1(CCN(CC3CC3)C1)CN2Cc1ccccc1 (stereo not drawn),2.6%[70.6 µM]
Cc1cc(C)c(CNC(=O)c2cc(-c3ccccc3F)cc3c2OCCN3C)c(=O)[nH]1,-18.0%[70.6 µM]
O=C1CCCN1CCCN1C(=O)[C@H]2CN(Cc3ccc(Br)cc3)C[C@H]2C1=O,-2.0%
CC1CCC2(CC1)OCC(C(=O)NC1CC1)N2C(=O)c1ccccc1F (stereo not drawn),2.6%
O=C(NCc1ccccc1)N1CC(Oc2cccc(-c3nc(-c4ccccc4)no3)c2)C1,-19.5%
Cc1ccc(OCC(=O)c2ccc3c(c2)N(CCCC(=O)N2CCOCC2)C(=O)CO3)c(Cl)c1,1.1%
CC(=O)Nc1ccc(CN2CC[C@@H](c3ccc4c(c3)OCO4)[C@H](O)C2)cc1,2.9%
CCNC(=O)[C@@H]1CCCN1[C@@H](C(=O)NC)C1CC1,-0.3%[70.6 µM]
CCC(C(=O)N1CCN(c2cc(-c3cccs3)[nH]n2)CC1)c1ccccc1 (stereo not drawn),-21.2%
COc1ccc(C(=O)N2CCC(c3n[nH]c(=O)n3-c3ccccc3)CC2)cc1OC,-6.9%
Cc1cc(C)cc(NC(=O)c2ccc3c(c2)N(C)C2CCCCN2C3=O)c1 (stereo not drawn),-18.5%
O=C(N1C[C@H](CO)C[C@H](CN2CCCC2)C1)C1(Cn2cccn2)CC1,4.3%
Cc1ccccc1C(=O)N1CCC(N2CCCCCC2=O)CC1,3.3%[70.6 µM]
O=C(Cn1nc2c(cc1=O)CCCCC2)Nc1cccc(Cl)c1,0.8%
CC(=O)N1C[C@@H]2CCCN3CCC[C@@H]([C@H]23)[C@H]1CCCC(=O)N1CCN(c2ccccc2)CC1,-1.2%
CCCNC(=O)N1CCCCC1c1noc(COc2ccc(C)cc2)n1 (stereo not drawn),1.8%
Cc1cccc2c1nc1n2[C@@H](CNC(=O)c2ccc(F)cc2)COC1,0.4%[70.6 µM]
CC(C)=CCn1c(-c2ccccc2Cl)cn2cc(C(=O)NCC(C)O)nc2c1=O (stereo not drawn),0.8%
COCCCNC(=O)C1c2ccccc2C(=O)N(C2CCCCC2)C12CCCCC2 (stereo not drawn),-2.3%
COc1ccc(NC(=O)N2CCCC(c3nn[nH]n3)C2)cc1 (stereo not drawn),18.9%
Cc1cnc(C(=O)N[C@@H]2CCC[C@@H]2C(=O)NCc2ccccc2)cn1,1.9%
CCc1cccc(C)c1NC(=O)Cn1c(=O)n(-c2ccccc2)c(=O)c2c1cc(C)n2C,1.8%
Cc1nc(-c2cccc(NC(=O)N[C@H](C)c3onc(-c4ccc(F)cc4)c3C(=O)O)c2)no1,4.7%
CCOCCn1nc(C)cc1C(=O)NC1CC(c2cc(=O)[nH]c(N)n2)C1 (stereo not drawn),2.8%
Cn1nc(C(=O)N2CC(c3nnc(-c4ccncc4)o3)C3(CCOCC3)C2)c2ccccc21 (stereo not drawn),-7.4%
COc1cccc(CNC2(Cc3cc(COc4ccccc4)on3)COC2)c1,6.8%[70.6 µM]
COCC(=O)Nc1nc2c(s1)C[C@@H]1[C@](C)(CO)[C@H](O)CC[C@@]1(C)[C@@H]2CC(=O)N1CCC(C)CC1,0.4%
CSCC(=O)N1CCC(C2CCNC2)CC1 (stereo not drawn),2.8%
CSc1cccc(NC(=O)c2ccc3c(c2)N(C)C2CCCCN2C3=O)c1 (stereo not drawn),-7.1%
O=C(Nc1cccn2nc(C3CCC3)nc12)c1ccc(F)cc1F,4.4%
CC(=O)Nc1ccc(-c2c(-c3ccccc3)ncn2Cc2ccnc(C)c2)cc1,-2.6%
CC(C)NC(=O)c1ccnc(-c2ccccc2S(=O)(=O)NC(C)(C)C)c1,6.3%
O=C(CN1CC2CC(C1)[C@H]1CCCC(=O)N1C2)NCCCN1CCCC1=O (stereo partly drawn),-0.2%
CN(Cc1ccccc1)Cc1nc2c(n1Cc1ccccc1)C(=O)N(Cc1cccc(Cl)c1)CCN2,-9.1%
CN(C)c1nc2c(c(=O)[nH]1)CCN(Cc1ccccc1Cl)CC2,1.6%
Cc1cccnc1NCCNC(=O)c1ccc(S(N)(=O)=O)cc1,4.0%
O=C1NC2(CCN(Cc3ccncc3)CC2)COc2ccccc21,-6.2%[70.6 µM]
CCCNC(=O)c1cc2c(s1)CCN(C(C)=O)C2,0.1%
CC(C)c1cc(CNC(=O)c2ccc(OC3CCN(C(=O)C4CC4)CC3)cc2)on1,?
CCNC(=O)[C@@H]1C[C@H](n2cc(CN(C)C(=O)Nc3ccc(C)cc3)nn2)CN1,-1.3%
Fc1ccc2nc(CO[C@H]3CN(C4CCOCC4)C[C@H]3F)[nH]c2c1,0.3%[70.6 µM]
Cc1ncsc1CN1CCCC(c2[nH]ccc2C(N)=O)C1 (stereo not drawn),4.5%
Cc1cc(S(=O)(=O)N2CCC(Oc3ccc(C(N)=O)cn3)CC2)ccc1Cl,?
COc1ccc(-c2nnc3ccc(NC(C)C)nn23)nc1,-3.4%[70.6 µM]
COc1ccc(CNC(=O)C[C@@H]2O[C@H](CNC(C)=O)[C@@H](O)[C@H]2O)cc1,7.7%[70.6 µM]
O=C(Nc1ccccc1)C1CCCN(c2cnc3nccnc3c2)C1 (stereo not drawn),0.8%
COc1ccc(CN2CC[C@@](O)(C3CC3)[C@H](C)C2)cc1CN1CCCC1,-2.6%
# More results follow.
SMILES,hNpr1 antagonist
O=C(CN1CCOCC1)N1CC2CC(C1)[C@H]1CCCC(=O)N1C2 (stereo partly drawn),-1.1%
O=C(c1ccc2nccn2c1)N1CCC(C(O)CCc2ccccc2)CC1 (stereo not drawn),-3.3%
O=C1[C@H]2CN(Cc3cc(F)c(F)cc3F)C[C@H]2C(=O)N1Cc1ccc2c(c1)OCO2,4.1%
COc1ccc(NC(=O)N[C@H]2C[C@@H](C(=O)N[C@@H](Cc3cccs3)C(N)=O)N(C(=O)CSC)C2)cc1,8.2%
CCCCN1C(=O)[C@@H]2C[C@@H](O)CN2C2(CN(C3CCC(F)(F)CC3)C2)C1=O,-1.3%[70.6 µM]
Cc1cccc(-c2nc3cnccn3c2NCCC(=O)NCc2ccc(F)c(Cl)c2)c1,-19.4%
CC1=NOC2(CCN(Cc3ccc(N(C)C)cc3)CC2)C1,8.2%[70.6 µM]
COc1ccc(OC)c(CNC(=O)CCC2CCN(S(=O)(=O)c3ccccc3)CC2)c1,-13.0%
Cc1ccc([C@@H]2CN(c3cc(N4CCC(O)CC4)ncn3)C[C@H]2N(C)C)cc1,-1.0%
C#CCNC(=O)C1CCN(C(=O)C2CN(c3ccc(OC)cc3)C(=O)N2)C1 (stereo not drawn),-2.9%
COCCn1c(CO)nnc1C1CC(NC(=O)c2cccc(C#N)c2)C1 (stereo not drawn),16.9%
COc1ccc2c(c1)C(C[C@H]1CN(C(=O)C3CCC3)CC[C@H]1CC(=O)O)=NCC2,-1.9%[70.6 µM]
CCN1c2cc(C(=O)Nc3cccc(C(F)(F)F)c3)ccc2C(=O)N2CCCC21 (stereo not drawn),-5.0%
COc1ccccc1CC(=O)N1CCCc2ncc(C(=O)Nc3cccc(C(F)(F)F)c3)cc21,-12.7%
COC1CCOC2(CCN(C(=O)c3ccoc3)CC2)C1 (stereo not drawn),-3.5%
Cc1oc(-c2ccccc2)nc1Cn1ccn2nc3c(c2c1=O)CCCC3,-2.3%
COc1ccc(S(=O)(=O)N2CCC3(CC2)CC(CC(=O)N2CCCC2)CCO3)cc1 (stereo not drawn),-3.4%
COc1cccc(N2CCN(C(=O)C[C@H]3NC(=O)c4ccccc4NC3=O)CC2)c1,-18.3%
COC(=O)N1CCCCC12Cc1ccccc1NC2=O (stereo not drawn),15.0%[70.6 µM]
Cc1nccc(-c2ccccc2)c1C(=O)N1CCN(C)C(C(=O)O)C1 (stereo not drawn),1.2%
COc1ccc(-c2cn(C)c(=O)n3cc(CN4CCNC(=O)C4)nc23)cc1,-4.0%[70.6 µM]
Cc1nn(-c2ccccc2)c(Oc2ccccc2F)c1CCC(=O)N1CCSCC1,-17.1%

# Not all compounds are listed; count on the stated rates, not on these rows.
